NPYLR7 agonist: activates Aedes aegypti NPYLR7 receptor; HEK293T NPYLR7/Galpha15, GCaMP6s calcium fluorescence; activation, % at 10 µM; actives 0.15% (n = 270,000); AID 1259423; in the data active means activation above about 40%;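 further: 0% = vehicle and 100% = reference agonist at the receptor; some compounds past the cut are filed as inactive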
NPYLR7 agonist max-min: second read-out of NPYLR7 agonist, no call of its own (marks repeat the call); activation, %; measured here: Max-Min RFU normalised activation; some inactives read as strong as hits;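 span of the calcium signal over five minutes; 0% = vehicle and 100% = native peptide agonist; compound fluorescence can raise it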
* marks the source's active call; other numbers are inactive results; & = joins results of further samples. This is a subset; rates above refer to the full screens.

The opening 2 compounds as a preview:
cpd	smiles	NPYLR7 agonist	NPYLR7 agonist max-min
1	O=C1CN(C(=O)c2nn(CCCc3ccccc3)c3c2CN(C(=O)CC2=CCCCC2)CC3)CCN1	15	1
2	N=C1c2ccccc2CN1c1ccc(S(=O)(=O)N2CCCCC2)cc1	1	-1

Main list, previewed entries included:
cpd	smiles	NPYLR7 agonist	NPYLR7 agonist max-min
1	O=C1CN(C(=O)c2nn(CCCc3ccccc3)c3c2CN(C(=O)CC2=CCCCC2)CC3)CCN1	15	1
2	N=C1c2ccccc2CN1c1ccc(S(=O)(=O)N2CCCCC2)cc1	1	-1
3	COCCN(C(=O)Cc1c(C)noc1C)c1c(N)n(CC(C)C)c(=O)[nH]c1=O	5	1
4	CN(C)c1nc(Oc2ccc(OCCOc3ccccc3)nn2)nc(N(C)C)n1	15	10
5	CC(=O)N1N=C(c2cn(-c3ccccc3)nc2-c2ccccc2)CC1c1ccccc1O (stereo not drawn)	10	8
6	CCn1c(SCC(=O)c2ccc[nH]2)nnc1-c1ccncc1	-6	-5
7	Cc1nn(C)c(C)c1CCc1nc(-c2cccc(CO)c2)no1	18	8
8	O=C(CN1CCC2(CC1)NC(=O)N(Cc1ccc(Cl)cc1)C2=O)N1CCOCC1	0	-2
9	Cn1c(=O)n(C)c2cc(CNC(=O)C3CCC(=O)N(Cc4ccccn4)C3)ccc21 (stereo not drawn)	-2	-1
10	CCOC(=O)c1c(C)c(C(=O)CN(Cc2ccco2)S(=O)(=O)/C=C/c2ccccc2)c(C)n1CC	5	8
11	CC(=O)c1cccc(CN2CCN(Cc3ccc(C)cc3)C(CCO)C2)c1 (stereo not drawn)	15	2
12	CC(=O)N(C)c1ccc(-c2cccc(O)c2)cc1	7	6

cpd	smiles	NPYLR7 agonist	NPYLR7 agonist max-min
13	CC(C)N1C(=O)COCc2ccc(-c3ccccc3)cc21	5	0
14	CC1CCCCC1N(C)C(=O)COC(=O)C1CCC(NC(N)=O)CC1 (stereo not drawn)	2	1
15	CN(Cc1n[nH]c2c1CCCCC2)C(=O)CC1NC(=O)c2ccccc21 (stereo not drawn)	9	6
16	CCNc1cc(C)nc(N2CCN(C(=O)c3ccccc3)CC2)n1	10	3
17	C=CCOC(Cn1ccnc1)c1ccc(Cl)cc1Cl (stereo not drawn)	-14	-17
18	C=CCN1C(=O)NC(c2ccccc2)C2=C1CN(CCOC)C2=O (stereo not drawn)	-1	9
19	COC(=O)c1ccc(NC(=O)CSc2ccc(-c3sc(-c4ccc(F)cc4)nc3C)nn2)cc1	7	-7
20	CCCCn1c(=O)c2c(nc3n(CCOC)c(C)c(C)n23)n(C)c1=O	1	6
21	CSc1cccc(NC(=O)c2csc3c2CCCC3)c1	-11	-2
22	COc1ccc(CN(Cc2ccco2)CC(O)COCc2ccco2)cc1 (stereo not drawn)	17	27
23	CCN1CCN(CCC(=O)NC(C)c2nc3ccccc3n2C)CC1 (stereo not drawn)	0	-2
24	CCCc1nnc(C(=O)N2CCCOC(CN3CCCC3)C2)o1 (stereo not drawn)	3	0

cpd	smiles	NPYLR7 agonist	NPYLR7 agonist max-min
25	CC1CCCC(NC(=O)c2ccc(CSc3nnc4ccccn34)cc2)C1 (stereo not drawn)	-8	-14
26	Cc1ccc(N(CC(=O)N2CCC(=O)NCC2C)S(C)(=O)=O)cc1 (stereo not drawn)	-3	-7
27	COc1cc(C(=O)N(C)CCOc2cccc(Cl)c2)cc(Cl)c1OC	-1	-5
28	O=C(NC1CC1)c1ccc(-c2cnc3c(n2)[nH]c(=O)n3-c2ccc(N3CCOCC3)cc2)cc1	-2	-5
29	CC(=O)c1ccc(C(=O)N(Cc2ccccn2)c2nc3ccccc3s2)cc1	-7	-10
30	COc1ccccc1-n1c(-c2ccccc2)cc(C(=O)NCc2cccc(C(F)(F)F)c2)c1C	9	7
31	COc1ccccc1NC(=O)C1=C(C)Nc2nc(-c3ccccc3)nn2C1c1cccs1 (stereo not drawn)	4	4
32	CCCN1CCCC[C@H]1C(=O)Nc1c(C)cccc1C	-4	-9
33	O=C(OCc1ccccc1)Oc1cncc(C(=O)O)c1	1	4
34	COc1ccc(C2CC(c3ccccc3Cl)=NN2C(=O)CN2CCCCC2C)c(OC)c1 (stereo not drawn)	1	7
35	O=C1/C(=C/c2ccc(-c3cc(Cl)ccc3Cl)o2)C=C(c2ccccc2)N1c1ccc(O)cc1	0	6
36	CCC(Sc1nc(N)c(NC(=O)c2ccc(OC)c(OC)c2)c(=O)[nH]1)C(=O)OC (stereo not drawn)	4	1

Results in sequence from above.
NPYLR7 agonist for entries 31 to 34 → 4, -4, 1, 1
NPYLR7 agonist max-min for entries 31 to 34 → 4, -9, 4, 7

The listing continues:
cpd	smiles	NPYLR7 agonist	NPYLR7 agonist max-min
37	Cn1cnc([N+](=O)[O-])c1NC1CCCCCCC1	7	12
38	CN1c2ccccc2C(=O)NC12CCN(Cc1ccccc1)CC2	9	8
39	COc1cc(C)cc(C(=O)N2CCCN(C(=O)C(C)(C)C)CC2)c1O	8	7
40	CC(NC(=O)C(C)N1CCC(OCCN2CCOCC2)CC1)c1ccc(F)cc1 (stereo not drawn)	-5	-6
41	O=C1NCC2(CCCN(C(=O)COc3ccc4c(c3)OCO4)C2)O1 (stereo not drawn)	13	10
42	C=C(C)Cn1c(N2CCN(CC)CC2)nc2c1c(=O)[nH]c(=O)n2C	1	27
43	O=C(c1ccc(-c2cccc(Cl)c2)s1)N1CC(=O)N2CCc3c(F)cccc3C2C1 (stereo not drawn)	2	5
44	COc1ccc(-c2cnc3c(c2)CCN3Cc2cccc(OC)c2)cc1	20	7
45	Cc1nc(C(C)(C)C)sc1C(=O)NCC(C)(C)c1ccccc1F	-2	38
46	CC(=O)c1ccc(NC(=O)CSc2nnnn2-c2cccc(F)c2)cc1	17	7
47	COC(=O)CSc1nnc(-c2ccccc2C)n1-c1ccc(OC)cc1	30	23
48	CCOC(=O)c1ccc2c(c1)nc(SCc1ccc(OC)c(C(F)(F)F)c1)n2CCOC	12	5

cpd	smiles	NPYLR7 agonist	NPYLR7 agonist max-min
49	O=C(CSc1nnc(-c2ccc(Cl)cc2)n1-c1ccccc1)N/N=C\C=C\c1ccccc1	-6	-9
50	COCCOC(=O)C1=C(C)N(C)C(=S)NC1c1ccc(N)cc1 (stereo not drawn)	8	19
51	O=[N+]([O-])c1cc(C(F)(F)F)cc([N+](=O)[O-])c1NN=C1CCCc2ccccc21	1	-2
52	CN1CCN(N=Cc2ccccc2I)CC1	-22	-30
53	COc1ccc(-n2c(C)cn3c4c(=O)n(C)c(=O)n(C)c4nc23)cc1Cl	13	5
54	Cn1nc(-c2nccn2CC2COCCO2)c2c(Cl)cccc21 (stereo not drawn)	8	5
55	CN(c1ccccc1)S(=O)(=O)c1cccc(NCc2ccccc2C#N)c1	8	3
56	O=C(COc1ccccc1)N=Nc1c(O)n(CO)c2ccccc12	2	0
57	Cc1cc(C(=O)N2C[C@H](Oc3ccccn3)[C@H]3C[C@@H]2Cc2c3n(C)c3ccccc23)no1	6	17
58	Cc1ccsc1[C@@H]1CCN(Cc2cn[nH]c2-c2ccc(F)cc2)C[C@H]1O	3	0
59	O=C(C1CNCCN1C(=O)CCc1cc(Cl)no1)N1CCOCC1 (stereo not drawn)	10	8
60	Brc1ccc2nc(CSc3ncnc4sc5c(c34)CCCC5)cn2c1	-5	4

cpd	smiles	NPYLR7 agonist	NPYLR7 agonist max-min
61	Cc1ccsc1/C=N\NC(=O)CSc1nnc(-c2ccccc2)n1-c1ccccc1	-6	-11
62	O=c1c(N=Nc2nccs2)c(-c2ccccc2)[nH]n1-c1ccccc1	-2	-9
63	Cc1csc2c(SCC(=O)NCC3CC3)ncnc12	-1	-2
64	COc1ccccc1OCCn1c(SC(C)C)nc2ccccc21	0	-10
65	CCCN(CC(=O)Nc1ccccc1C)C(=O)/C=C/c1ccc(Br)o1	0	-1
66	CC(C)C1CC(CCN2CCCCC2)(c2ccccc2)CCO1 (stereo not drawn)	-4	-13
67	CCCCCCN(C(=O)c1ccc(F)cc1)C(CC)c1nc2cc(Cl)ccc2c(=O)n1CC (stereo not drawn)	-9	-9
68	COCc1n[nH]c(=S)n1-c1ccc(Cl)c(Cl)c1	-7	-5
69	CC(=C\c1ccccc1)/C=C1/SC(N)=NC1=O	42	32
70	Cc1cc(C)c(C(=O)N2CCCC(Nc3ccc(F)cc3)C2)o1 (stereo not drawn)	-6	-7
71	CCN(CC)Cc1cnc2c(C(=O)Nc3ccc4c(c3)COC4)cnn2c1	7	4
72	Cc1cc(OC(C)C(=O)N(C)c2ccc(C(N)=O)cc2)ccc1Cl (stereo not drawn)	5&7	-1&5

cpd	smiles	NPYLR7 agonist	NPYLR7 agonist max-min
73	COc1ccc(/C=N\N(CCC#N)C2=NS(=O)(=O)c3ccccc32)cc1OC	-11	-19
74	Nc1c(-c2ccccc2)n[nH]c1-c1ccccc1	-2	-2
75	CCOC(=O)CN(C(=O)N1CCOCC1)[C@@H]1C[C@@H]2CO[C@H](C(C)C)C[C@@H]2C1	20	17
76	O=S(=O)(NCC1CCN(Cc2ccsc2)CC1)c1cccc2ccccc12	-6	-8
77	COc1ccccc1CN(CCC(C)C)CC(O)COCC(C)C (stereo not drawn)	18	14
78	CNCC(=O)N1CCCC1c1nc(C(C)C)no1 (stereo not drawn)	2	1
79	O=C(Nc1cnc(-c2ccccc2)nc1)N1CCC(N2CC=CC2)C1 (stereo not drawn)	0	28
80	COc1ccc(C(=O)N2CCC3(CC2)OCC(C(=O)NCc2cccnc2)N3C(=O)c2ccccc2)cc1OC (stereo not drawn)	0	12
81	CN(C)CCCOc1ccc(-c2nnc3ccc(-c4ccc(C(N)=O)cc4)cn23)cc1	6	-4
82	O=C(COC(=O)c1ccc(Br)o1)Nc1c(F)c(F)c(F)c(F)c1F	-5	-8
83	CC(C)S(=O)(=O)N1CCN(c2cc(Oc3cccc(F)c3)ncn2)CC1	7	10
84	Cc1noc(C)c1C(C)C(=O)N1CCOC(C(N)=O)C1 (stereo not drawn)	1	11

Record cards (already shown).
CCOC(=O)CN(C(=O)N1CCOCC1)[C@@H]1C[C@@H]2CO[C@H](C(C)C)C[C@@H]2C1 across the screens: NPYLR7 agonist = 20; NPYLR7 agonist max-min = 17
COc1ccc(C(=O)N2CCC3(CC2)OCC(C(=O)NCc2cccnc2)N3C(=O)c2ccccc2)cc1OC (stereo not drawn) across the screens: NPYLR7 agonist = 0; NPYLR7 agonist max-min = 12

(continued)
cpd	smiles	NPYLR7 agonist	NPYLR7 agonist max-min
85	Cc1nnc(CN(C)Cc2nc(-c3ccc(C(F)(F)F)cc3)oc2C)o1	6	5
86	CCCn1ccc2c(nnc3c(-c4ccc(Cl)cc4)c(CC)nn32)c1=O	6	8
87	CC1(C(=O)NCc2ccc(C(F)(F)F)cc2)CCN1Cc1csc2ccccc12 (stereo not drawn)	12	10
88	COc1cc(CN2C(=O)C(C)ON=C2c2cccc(Cl)c2)cc(OC)c1 (stereo not drawn)	-3	-2
89	C=CCN(Cc1nc2sc(C(=O)OC(C)C)c(C)c2c(=O)[nH]1)CC(O)CC (stereo not drawn)	29	26
90	COC(=O)C1C2C=CC3(CN(Cc4ccco4)C(=O)C13)O2 (stereo not drawn)	6	4
91	CCc1nc2ccc(C(=O)NCc3ccc(OC)cc3)cn2c1N(CCC(C)C)CCN(C)C	-6	-12
92	Cc1onc(-c2ccccc2)c1C(=O)NCc1ccc2c(c1)OCO2	0	-3
93	CC1(C)CC(NC2CC(C)(C)NC(C)(C)C2)CC(C)(C)N1	0	-4
94	N#CCCNN=Cc1ccncc1	-5	-10
95	COc1ccc2cc(C3CN(C(=O)c4cn[nH]n4)CCO3)ccc2c1 (stereo not drawn)	1	7
96	COc1cccc(CCNC(=O)c2ccc(SCc3ccccc3)nc2)c1	-8	-13

Four records drawn at random from those above:
cpd	smiles	NPYLR7 agonist	NPYLR7 agonist max-min
91	CCc1nc2ccc(C(=O)NCc3ccc(OC)cc3)cn2c1N(CCC(C)C)CCN(C)C	-6	-12
89	C=CCN(Cc1nc2sc(C(=O)OC(C)C)c(C)c2c(=O)[nH]1)CC(O)CC (stereo not drawn)	29	26
88	COc1cc(CN2C(=O)C(C)ON=C2c2cccc(Cl)c2)cc(OC)c1 (stereo not drawn)	-3	-2
90	COC(=O)C1C2C=CC3(CN(Cc4ccco4)C(=O)C13)O2 (stereo not drawn)	6	4

(listing goes on)
cpd	smiles	NPYLR7 agonist	NPYLR7 agonist max-min
97	CC1(C(=O)NS(=O)(=O)c2cccc(F)c2)CCN1C(=O)C/C=C/c1ccccc1 (stereo not drawn)	4	3
98	CN1CCN(c2cc(C(F)(F)F)ccn2)CC1C(=O)O (stereo not drawn)	17	11
99	CCOc1ccc(/C=C/C(=O)Nc2nc3ccc(OC)cc3s2)cc1	-4	-8
100	CCN(CC)CCn1c2c(c(SCC(=O)Nc3ccc(C)cc3C)nc1=O)CCCC2	1	9
101	O=C1CSC(=S)N1NC(=S)Nc1ccc(SC(F)F)cc1	0	0
102	Cc1ccc(Cc2nc(N3CCN(C(=O)CCl)CC3)c3c(-c4ccc5ccccc5c4)noc3n2)cc1	24	33
103	CC(C)CC(C)(NCc1ccc(Cl)nc1)C(N)=O (stereo not drawn)	18	23

Screening results deposited in PubChem BioAssay by Fisher Drug Discovery Resource Center.
